Bioassay records deposited in PubChem by Sanford-Burnham Center for Chemical Genomics.
HKDC1 inhibitor – HKDC1 (human) hexokinase inhibition. Q2TB90. recombinant HKDC1, G6PDH/diaphorase resazurin coupled fluorescence. inhibition, % at 20 µM. 340,000 tested, 0.16% active;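 active = inhibition above about 35% when tested at 20 µM, limit read from the data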;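 note: plate controls were DMSO wells with enzyme for no effect and DMSO wells lacking enzyme for full effect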
Target sequence (Q2TB90 whole entry, looked up): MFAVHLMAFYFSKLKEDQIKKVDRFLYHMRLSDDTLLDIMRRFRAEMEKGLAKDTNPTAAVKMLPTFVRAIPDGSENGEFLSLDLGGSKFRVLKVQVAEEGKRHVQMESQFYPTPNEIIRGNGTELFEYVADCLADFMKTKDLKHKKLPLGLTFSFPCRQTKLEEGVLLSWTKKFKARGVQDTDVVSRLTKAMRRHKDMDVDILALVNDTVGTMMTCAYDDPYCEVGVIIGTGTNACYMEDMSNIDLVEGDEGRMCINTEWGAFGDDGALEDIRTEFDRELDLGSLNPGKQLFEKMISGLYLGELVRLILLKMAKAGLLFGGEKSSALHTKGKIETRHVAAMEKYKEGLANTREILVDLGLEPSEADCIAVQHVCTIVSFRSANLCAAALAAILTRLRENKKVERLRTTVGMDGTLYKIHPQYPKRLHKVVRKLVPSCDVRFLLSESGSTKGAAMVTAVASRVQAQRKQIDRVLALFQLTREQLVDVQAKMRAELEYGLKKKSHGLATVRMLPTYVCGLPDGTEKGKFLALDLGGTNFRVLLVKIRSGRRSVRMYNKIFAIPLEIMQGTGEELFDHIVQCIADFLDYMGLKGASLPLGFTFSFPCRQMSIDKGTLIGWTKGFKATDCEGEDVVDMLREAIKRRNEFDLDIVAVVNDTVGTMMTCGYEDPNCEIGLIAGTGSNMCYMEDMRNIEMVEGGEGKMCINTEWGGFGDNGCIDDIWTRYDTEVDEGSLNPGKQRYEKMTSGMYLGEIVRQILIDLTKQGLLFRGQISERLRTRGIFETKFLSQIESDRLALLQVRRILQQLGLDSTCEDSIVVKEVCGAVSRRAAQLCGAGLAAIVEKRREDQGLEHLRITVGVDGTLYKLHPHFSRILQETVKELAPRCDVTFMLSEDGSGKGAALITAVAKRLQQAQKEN
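System: Recombinant HKDC1 hexokinase | Amount: HKDC1 at 5 µg/mL | Reagent: Glucose with 1 mM ATP | Doses: Single 20 µM dose | Incubation: Reaction time 90 min, room temperature, protected from light | Signal: Coupled resazurin fluorescence, excitation 525 nm, emission 613 nm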
SENP8 inh – inhibitors of human SENP8 protease. Q96LD8. inhibition, % at 20 µM. recombinant SENP8, Nedd8 substrate fluorescence. 360,000 tested, 0.64% active; in the data active = inhibition mostly above about 40%, no sharp cut-off; inactive = mostly below about 27%
ATG4B inhibitor – inhibitors of human ATG4B cysteine protease; Q9Y4P1; 340,000 tested, 0.51% active; ATG4B cleavage of LC3-PLA2, NBD-HPC fluorescence, 1 h; inhibition, % at 8.33 µM; in the data active = inhibition above about 40%
NR3A LBD binder – modulators (binders) of human NR3A ligand-binding domain; NR3A LBD differential scanning fluorimetry, Tm shift; 0% = protein alone, 100% = glycine-bound protein; Tm shift relative to glycine control, % at 25 µM; 340,000 tested, 2.5% active;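 active = melting temperature shift of at least 10% of the positive control shift, at one fixed dose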
PfGluPho inh – PfG6PD (Plasmodium falciparum) enzyme inhibition. PfGluPho enzyme, NADPH resazurin-diaphorase fluorescence. inhibition, % at 20 µM. 350,000 tested, 0.78% active. AID 504690;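 active = inhibition reaching at least a set limit at 20 µM in the primary screen, cut at about 59% in these data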;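 note: 0% = DMSO wells with substrate and 100% = DMSO wells lacking glucose-6-phosphate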
SENP7 block – SENP7 protease inhibition | Q9BQF6 | recombinant SENP7, Z-RLRGG-aminoluciferin luminescence, 40 min | inhibition, % at 5 µM | 330,000 tested, 1.5% active | AID 434973;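 active = inhibition above about 50% at the single test dose, limit read from the data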;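 note: plate controls were DMSO with enzyme for no effect and no enzyme buffer wells for full effect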
SENP6 inh – blocks the human protease SENP6 | Q9GZR1 | Recombinant SENP6 catalytic domain, aminoluciferin luminescence | inhibition, % at 10 µM | 330,000 tested, 1.8% active;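 active = inhibition above about 50% at the single tested dose, limit read from the data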;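 note: plate controls were DMSO wells with enzyme for no effect and DMSO wells lacking enzyme for full effect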
The depositor's hits bear a star; · = not tested or not shown; & = joins results of further samples.

Values run as follows: HKDC1 inhibitor | SENP8 inh | ATG4B inhibitor | NR3A LBD binder | PfGluPho inh | SENP7 block | SENP6 inh
CCOc1cc(C)c(Cl)cc1S(=O)(=O)N(C)C
  -5 | 14 | 8 | -1 | -1 | -16 | -7
CCOc1ccc(/C=N/NC(=O)Cc2cccs2)cc1
  2 | -4 | 4 | 1 | -18 | -5 | -10
O=C(NN=C1CCCCCCCCCCC1)c1cccc(S(=O)(=O)N2CCOCC2)c1
  3 | 18 | -1 | 3 | 3 | -1 | -13
CCN(c1ccc(NC(=O)COC(=O)c2ccc(S(=O)(=O)N3CCCC3)cc2)cc1)C(C)C
  -1 | 12 | -5 | -8 | 2 | 3 | -11
COc1ccc(C(=O)N2CCN(c3ncccn3)CC2)cc1
  2 | 18 | -2 | 0 | -6 | 8 | 13
COc1ccc(CNc2ncnc3cc(Cl)ccc23)cc1
  -6 | -12 | 4 | -1 | -3 | 1 | -9
CC(=O)c1ccc(NC(=O)C(C)OC(=O)C(C)Oc2cccc(C)c2)cc1 (stereo not drawn)
  3 | 12 | -9 | 10* | -1 | 5 | 0
CC(C)[C@@H]1COC(c2cccc(C3=N[C@H](C(C)C)CO3)c2)=N1
  -8 | 10 | 5 | 0 | 9 | -4 | -1
O=C(O)/C=C/C(=O)O
  -5 | 34 | -27 | -3 | 6 | -4 | -4
NC(=O)C1CCN(C(=O)c2ccccc2SCC(=O)NCC2CCCCC2)CC1
  -7 | 0 | 2 | -1 | -4 | -2 | -11
CC(=O)NS(=O)(=O)c1ccc(NC(=O)/C=C/c2ccco2)cc1
  -4 | 7 | 0 | 1 | -11 | -2 | 2
CCN1CCC2(CC1)Oc1c(OC)cccc1C1CC(c3cccnc3)=NN12 (stereo not drawn)
  -1 | 4 | -3 | -1 | -3 | -2 | -13
COc1ccc(C(=O)O/N=C/c2ccc(S(=O)(=O)c3ccc(Cl)cc3)nc2)cc1
  -3 | -124 | -2 | 0 | -19 | -7 | 20
COc1c(Cl)cnn(-c2ccc(C)cc2)c1=O
  -4 | 8 | 6 | -2 | -3 | -4 | -5
Cc1cc(-c2ccc(C)c(S(=O)(=O)NCCCN3CCCCCC3)c2)on1
  -6 | 18 | -8 | 1 | 0 | 3 | 9
Brc1cccc(OCCCNC2CCCC2)c1
  -3 | 3 | 0 | -1 | -11 | -5 | -7
Fc1ccc(CNC(=S)Nc2cccc(Cl)c2)cc1
  -3 | 2 | 61* | 6 | -1 | -5 | -9
COCCNC(=O)CSc1nc2scc(-c3ccccc3)c2c(=O)[nH]1
  -3 | 10 | -2 | -1 | -2 | 4 | -14
O=C(CCNC(=O)c1ccccc1Cl)NN=Cc1ccco1
  -4 | 22 | -4 | -1 | 27 | 5 | 13
COc1ccc(OC2C(=O)N(Cc3ccc4c(c3)OCO4)C2c2cccs2)cc1 (stereo not drawn)
  -3 | 15 | -12 | 1 | -17 | -8 | -4
O=C(COc1ccccc1)NNC(=O)COc1ccc([N+](=O)[O-])cc1
  -7 | 6 | -6 | -2 | -3 | 6 | 30
CNCCCC12CCC(c3ccccc31)c1ccccc12
  -5&-6&-1 | 5&3&10 | 9&3&-3 | -7&1&1 | 17&15&13 | -9&-18&-6 | -6&-3&-5
COCCN(CCOC)C(=O)CCn1c(=O)oc2ccccc21
  5 | 9 | -7 | 1 | -21 | -5 | 2
CC(=O)Nc1cccc(C(=O)O)n1
  -8 | 2 | -9 | -3 | 6 | -3 | -8
CCN(C(=O)COc1cc(=O)n(CC)c2ccccc12)c1cc(Cl)ccc1OC
  -31 | 4 | -3 | 0 | -25 | -7 | -4
COc1ccc(Oc2nc3c(c(=O)n(C)c(=O)n3C)n2Cc2ccccc2)cc1
  2 | 18 | 9 | -2 | -3 | 9 | -10
Cc1ccc(C(=S)N2CCCCCC2)cc1
  0 | 23 | -4 | -1 | 7 | 4 | 9
Cc1ccc(-c2nc3c(cnn3-c3ccccc3)c(=O)o2)cc1
  8 | 6 | -10 | 2 | -3 | 5 | -1
Nc1cc(Nc2ccc(Br)cc2)nc(N)n1
  11 | 22 | 8 | -5 | 30 | 4 | -13
OCCN(CCO)c1nc(N2CCCCC2)c2nc(N(CCO)CCO)nc(N3CCCCC3)c2n1
  1 | -387 | -11 | -2 | 20 | -4 | -22
Cc1oc(C(=O)Nc2ccc(O)cc2)cc1COc1ccccc1
  8 | 24 | -4 | 16* | 5 | 1 | 6
COc1ccc(C2c3c(C)nn(-c4ccccc4)c3NC(=O)N2c2ccccc2)cc1 (stereo not drawn)
  3 | 10 | -8 | -13 | 1 | 3 | -9
CCCCn1c(N)c(N(CC)C(=O)c2ccc(-c3ccc(Cl)cc3)o2)c(=O)[nH]c1=O
  -4 | -193 | -10 | 0 | -14 | 0 | 4
COc1ccc(NC2CS(=O)(=O)CC2NCc2ccccc2)cc1 (stereo not drawn)
  -1 | 40* | 1 | -2 | 2 | 3 | 7
Cc1onc(-c2ccccc2Cl)c1C(=O)NNC(=O)C1CCN(Cc2ccccc2)CC1
  -5 | 5 | -2 | 0 | -4 | -2 | -23
CCCC1=C(C(=O)OCC)C(c2ccc(OC)c(CSc3ccccn3)c2)C(C#N)=C(N)O1 (stereo not drawn)
  4 | -77 | 19 | -2 | 4 | -3 | 11
COc1ccc(Nc2cc(C(=O)NC3CCCC3)c3ccccc3n2)c(OC)c1
  4 | 13 | -4 | -4 | -2 | -8 | -13
COc1ccc2[nH]c3c(C)c4ccncc4c(C)c3c2c1
  3 | -198 | -35 | -6 | 60* | -6 | -33
CCCC(C)c1nnc(NC(=O)c2cc(C(=O)OC)cc([N+](=O)[O-])c2)s1 (stereo not drawn)
  -3 | 26 | 5 | -5 | 50 | -7 | 1
CSc1ccc(S(=O)(=O)NCc2ccccc2Cl)cc1
  5 | 11 | 35 | -2 | -2 | 10 | -1
CN(C)c1ccnc2sc(C(N)=O)c(N)c12
  -8 | -183 | -1 | 0 | 12 | 0 | -25
CCOc1cc(C(=O)N2CCN=C2SC)cc(OCC)c1OCC
  -1 | 15 | -9 | -1 | -2 | -2 | -11
O=Cc1cccn1Cc1ccccc1[N+](=O)[O-]
  -5 | 16 | -4 | 0 | -17 | -7 | 1
Cc1sc2ncnc(N3CCN(c4ncccn4)CC3)c2c1C
  11 | -3 | 2 | 0 | 29 | -1 | -8
CCCCN1C(=O)N(c2nnc(C(C)(C)C)s2)C(O)C1c1ccc(C)cc1 (stereo not drawn)
  1 | 23 | -8 | 0 | 17 | -8 | 5
Cc1ccc(C)c(NC(=O)CN(C)C(=O)C2COc3ccccc3O2)c1 (stereo not drawn)
  -1 | 8 | 6 | 1 | -11 | -3 | -1
Cc1ccc(OCCNC(=O)/C=C/c2ccc([N+](=O)[O-])cc2)cc1C
  -3 | 17 | -2 | -9 | 21 | -6 | -3
CCC(C)n1c(C)nc2c(c1=O)c1nc3ccccc3nc1n2CCC1=CCCCC1 (stereo not drawn)
  -8 | -276 | -6 | 1 | -26 | -8 | -11
CCOCCCn1c(=N)c(C(=O)NCc2ccc3c(c2)OCO3)cc2c(=O)n3cccc(C)c3nc21
  -20 | -237 | 24 | 2 | -8 | 7 | -4
COc1ccc(OC)c(S(=O)(=O)N2CCN(c3ccc(F)cc3)CC2)c1
  0 | 11 | 0 | 0 | -16 | -3 | -6
CC(=O)Nc1cccc(NC(=O)CSc2nnc(Cc3cccn3C)n2-c2ccc(F)cc2)c1
  -8 | -4 | -1 | 0 | 6 | -1 | -9
CCCC(=O)c1ccc(O)cc1O
  · | 6 | · | · | · | 4 | -7
CCC(NC(=O)C1C2C=CC(C2)C1C(=O)O)c1ccc(C)cc1 (stereo not drawn)
  -3 | 13 | 8 | 0 | -4 | -9 | 5
CC1(C)CC2CC(C)(CN2C(=O)c2ccc([N+](=O)[O-])cc2[N+](=O)[O-])C1 (stereo not drawn)
  -7 | 15 | -3 | 0 | -1 | 9 | 6
O=C(/C=C/c1ccco1)Nc1nc(-c2ccccc2)cs1
  -3 | -1 | 3 | -16 | 12 | 5 | 16
Cc1ccc(CNC(=O)C(NS(=O)(=O)c2cccc3nsnc23)C(C)C)cc1 (stereo not drawn)
  -5 | 14 | 4 | -1 | -2 | 10 | -2
Cc1ccc(C)c(S(=O)(=O)N2CCN(C(=O)[C@@H](NC(=O)c3ccc(F)cc3)C(C)C)CC2)c1
  -3 | 12 | -9 | -2 | 12 | 2 | -9
O=C(COc1ccc(Cl)cc1)Nc1ccccc1CO
  -4 | 14 | -3 | -14 | -2 | 5 | -22
O=S(=O)(c1cccc2nsnc12)N1CCN(c2ncccn2)CC1
  -3 | 19 | -9 | 3 | -6 | -1 | -1
O=C(O)c1ccc(N=C2SCC(=O)N2Cc2ccccc2)cc1
  1 | 9 | 0 | -1 | -8 | -3 | -27

Six entries already listed, sorted by heavy-atom count, lowest first.
Values run as follows: HKDC1 inhibitor | SENP8 inh | ATG4B inhibitor | NR3A LBD binder | PfGluPho inh | SENP7 block | SENP6 inh
O=Cc1cccn1Cc1ccccc1[N+](=O)[O-]
  -5 | 16 | -4 | 0 | -17 | -7 | 1
CCOc1cc(C(=O)N2CCN=C2SC)cc(OCC)c1OCC
  -1 | 15 | -9 | -1 | -2 | -2 | -11
CC1(C)CC2CC(C)(CN2C(=O)c2ccc([N+](=O)[O-])cc2[N+](=O)[O-])C1 (stereo not drawn)
  -7 | 15 | -3 | 0 | -1 | 9 | 6
CCCC(C)c1nnc(NC(=O)c2cc(C(=O)OC)cc([N+](=O)[O-])c2)s1 (stereo not drawn)
  -3 | 26 | 5 | -5 | 50 | -7 | 1
Cc1ccc(CNC(=O)C(NS(=O)(=O)c2cccc3nsnc23)C(C)C)cc1 (stereo not drawn)
  -5 | 14 | 4 | -1 | -2 | 10 | -2
CCCC1=C(C(=O)OCC)C(c2ccc(OC)c(CSc3ccccn3)c2)C(C#N)=C(N)O1 (stereo not drawn)
  4 | -77 | 19 | -2 | 4 | -3 | 11

One compound at a time, from the list above. Order of screens: HKDC1 inhibitor, SENP8 inh, ATG4B inhibitor, NR3A LBD binder, PfGluPho inh, SENP7 block, SENP6 inh
Listed for Cc1ccc(C)c(NC(=O)CN(C)C(=O)C2COc3ccccc3O2)c1 (stereo not drawn) = -1, 8, 6, 1, -11, -3, -1
Listed for O=C(COc1ccc(Cl)cc1)Nc1ccccc1CO = -4, 14, -3, -14, -2, 5, -22
Listed for Cc1onc(-c2ccccc2Cl)c1C(=O)NNC(=O)C1CCN(Cc2ccccc2)CC1 = -5, 5, -2, 0, -4, -2, -23
Listed for Cc1ccc(CNC(=O)C(NS(=O)(=O)c2cccc3nsnc23)C(C)C)cc1 (stereo not drawn) = -5, 14, 4, -1, -2, 10, -2
Listed for CC(=O)Nc1cccc(NC(=O)CSc2nnc(Cc3cccn3C)n2-c2ccc(F)cc2)c1 = -8, -4, -1, 0, 6, -1, -9

Remaining list, next part
Values run as follows: HKDC1 inhibitor | SENP8 inh | ATG4B inhibitor | NR3A LBD binder | PfGluPho inh | SENP7 block | SENP6 inh
Cc1ccc(SCc2nc(-c3cccnc3)no2)cc1
  -2 | 0 | 1 | -4 | 34 | 1 | 8
COc1ccc(C(=O)N/C(=C\c2cccs2)c2nc3ccccc3[nH]2)cc1OC
  10 | -268 | 3 | -2 | -2 | 4 | -1
COc1ccc(CN(Cc2cccn2C)S(=O)(=O)c2ccccc2)cc1
  0 | 19 | 26 | 1 | 13 | -5 | -18
Cc1c(-c2ccc(F)cc2)nc(N)c(C#N)c1-c1cccnc1
  4 | -412 | 3 | 1 | -13 | 8 | -28
CCOc1ccccc1C(=O)N(Cc1cccs1)C1CCS(=O)(=O)C1 (stereo not drawn)
  4 | 11 | 0 | -3 | -16 | 14 | -9

These rows are one share of the data; rates above refer to the full screens.
